Screens: PubChem BioAssay, National Center for Advancing Translational Sciences (NCATS)
StopGo reporter: lowers the luciferase signal of an FMDV 2A StopGo reporter; Potency, µM (titrated, usually from 57.9 µM), without a hit: at the highest dose signal change, negative = less light; 410,000 tested, 1.2% active; human cells with a luciferase reporter of 2A StopGo recoding; control for the full effect not named in the record; AID 1159524; active = well fitted falling curve with a large enough effect; inconclusive = small, poorly fitted or top-dose-only effect; inactive = no such curve, though single readings can be large or run the other way; tested in HEK293T cells; further: on the % scale 0 is the no-effect control and ±100 the full control effect; nearly all actives have a fitted effect of over 45% in size; luciferase light after 4 h
SARS PLP yeast: SARS-CoV PLP inhibition in yeast | S. cerevisiae expressing SARS-CoV PLpro, growth rescue; control for the full effect not named in the record | Potency, µM (top dose mostly 32.9 µM), without a hit: top-dose activity, positive = growth rescue | 330,000 tested, 0.19% active | AID 485353; further: 0% is about no effect; nearly all actives have a fitted effect of over 55% in size; growth read by luminescence after 48 h
MARV entry inh: inhibitors of Marburg virus binding or cell entry; Marburg virus pseudotyped entry inhibition, cell reporter; control for the full effect not named in the record; about a third of the inactives were read at about 46 µM; Potency, µM (highest dose often 37.8 µM), for the others: top-dose activity change, negative = inhibition, actives largely listed as inhibitors; 300,000 tested, 1.8% active; AID 540276; active = well fitted inhibition curve with a large enough effect; inconclusive = small, poorly fitted or top-dose-only effect, or effect the other way; inactive = flat fitted curve, though single readings scatter; tested in HEK293 cells; about a fifth of its hits are not listed in these tables; further: on the % scale 0 is the no-effect control and ±100 the full control effect; luciferase read-out
RE007 growth inh: less growth of the S. pombe RE007 Vpr strain | Potency, µM (doses to about 92.2 µM), for inactives: at the top dose activity change, negative = less growth | S. pombe RE007 Vpr strain, BacTiter-Glo ATP luminescence, 24 h; control for the full effect not named in the record | 360,000 tested, 0.21% active | AID 651644; active = well fitted falling curve with a large enough effect; inconclusive = small, poorly fitted or top-dose-only effect; inactive = no such curve, though single readings can be large or run the other way;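 further: on the % scale 0 is the no-effect control and ±100 the full control effect; nearly all actives have a fitted effect of over 50% in size; the assay follows cell death caused by Vpr and the record does not say whether a fall means rescue or toxicity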
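Fission yeast strain RE007, carrying one chromosomally integrated HIV-1 vpr copy, was seeded at OD 0.01 in PMG+AL medium with 23 nL pinned compound. After 24 h at 30 °C and 99% humidity, viability was read by BacTiter-Glo luminescence.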
Lassa entry inh: blocks Lassa virus binding to or entry into cells | Lassa virus pseudotype entry inhibition, cell reporter; control for the full effect not named in the record | Potency, µM (top dose mostly 37.9 µM), inactives show at the highest dose activity change, negative = inhibition, usual class: inhibitors | 300,000 tested, 1.2% active; active means well fitted inhibition curve with a large enough effect; inconclusive means small, poorly fitted or top-dose-only effect, or effect the other way; inactive means flat fitted curve, though single readings scatter; tested in HEK293 cells; further: on the % scale 0 is the no-effect control and ±100 the full control effect; nearly all actives have a fitted effect of over 50% in size; luciferase read-out
Cruzain inh noDet: cruzain (T. cruzi) inhibition without detergent; purified cruzain, Z-FR-AMC fluorescence, no detergent; 200,000 tested, 2.3% active; Potency, µM, without a hit: max response, negative = inhibition, usual class: inhibitors; active means well fitted curve in the direction sought with a large enough effect; inconclusive means small, poorly fitted or top-dose-only effect, or another doubt; inactive means no such curve, though single readings can be large; an effect the other way counts as inactive or inconclusive;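 further: plate controls were enzyme without inhibitor for no effect and buffer without enzyme for full effect; nearly all actives have a fitted effect of over 40% in size; top concentration of the series not given in the record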
Target sequence (P25779 123-467 limits assumed): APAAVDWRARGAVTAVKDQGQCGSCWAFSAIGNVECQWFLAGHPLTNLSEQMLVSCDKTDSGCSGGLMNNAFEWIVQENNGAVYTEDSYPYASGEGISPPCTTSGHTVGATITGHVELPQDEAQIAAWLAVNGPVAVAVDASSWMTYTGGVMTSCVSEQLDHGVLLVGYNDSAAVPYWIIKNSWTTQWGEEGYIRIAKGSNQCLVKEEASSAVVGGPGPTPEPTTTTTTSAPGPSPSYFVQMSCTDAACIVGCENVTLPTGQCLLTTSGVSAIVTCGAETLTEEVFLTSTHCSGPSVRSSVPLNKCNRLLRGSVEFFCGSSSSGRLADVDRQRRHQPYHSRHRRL
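Purified cruzain at 1.5 nM, pre-incubated 15 min with compound at room temperature in 100 mM sodium acetate pH 5.5, 5 mM DTT, 0.00005% Triton X-100. Reaction started with 2 uM Z-FR-AMC; AMC fluorescence increase over 60 s gives rate.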
NS1 inh: influenza NS1 inhibition. Potency, µM (doses to about 46.1 µM), without a hit: at the highest dose activity, positive = more growth. 270,000 tested, 0.4% active. S. cerevisiae slowed by influenza A NS1, growth recovery by OD600. AID 2326; further: actives are rising curves; nearly all actives have a fitted effect of over 50% in size
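In this qHTS, NS1 from influenza A is expressed in budding yeast, where it slows growth. Cells are switched from glucose to 2% galactose medium (pH 6.0, -URA), treated with compound, and growth recovery is read at OD600.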
Cruzain Triton: inhibitors of Trypanosoma cruzi cruzain with detergent | P25779 | purified cruzain, Z-FR-AMC fluorescence, 0.01% Triton | Potency, µM, for inactives: max response, negative = inhibition, actives largely listed as inhibitors | 200,000 tested, 0.43% active; active means well fitted curve in the direction sought with a large enough effect; inconclusive means small, poorly fitted or top-dose-only effect, or another doubt; inactive means no such curve, though single readings can be large; an effect the other way counts as inactive or inconclusive;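 further: plate controls were neutral wells for no effect and buffer without enzyme for full effect; nearly all actives have a fitted effect of over 40% in size; top concentration of the series not given in the record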
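Sodium acetate buffer (100 mM, pH 5.5) containing 5 mM DTT and 0.01% Triton X-100 hosted 1.5 nM cruzain and test compound for 15 min at room temperature. Cleavage of 2 uM Z-FR-AMC was then tracked by fluorescence.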
* hit, by the source's call; u = inconclusive; x = not tested or not shown; & = joins results of further samples; [ ] = another dose, or the depositor's remark. Unless noted, the call rests on the fitted dose curve; in most records, active means well fitted rising curve with a large enough effect; inconclusive means small, poorly fitted or top-dose-only effect; inactive means no such curve, though single readings can be large or run the other way. Potency means the concentration at half of the fitted maximal effect.

SMILES	StopGo reporter	SARS PLP yeast	MARV entry inh	RE007 growth inh	Lassa entry inh	Cruzain inh noDet	NS1 inh	Cruzain Triton
Cc1ccc(NC(=O)c2ccc(-n3cccn3)nc2)cc1	0%	0%	-5%[46.1 µM]	8%	21%[46.1 µM]	x	x	x
O=C(Nc1ccccc1)C1=C[C@@H](c2csc3ccccc23)C[C@@H](OCc2ccc(CO)cc2)O1	-10%	-2%	x	3%	x	x	14%	x
Nc1c(S(=O)(=O)c2cccs2)c2nc3ccccc3nc2n1CCc1ccccc1	x	4%	1%	x	x	18%	17%	3.2%
CSCCC(NC(=O)c1ccccc1)C(=O)N1CCN(C(c2ccccc2)c2ccccc2)CC1 (stereo not given)	u	0%	-28%	2%	14µM*	x	-9%	x
Cc1ccc(-c2nc3ccccn3c2C=O)cc1	48%[activator]	0%	-7%	u	-2%	x	-2%	x
CC(C)c1ccc(Nc2nc3c(S(=O)(=O)c4ccc(Br)cc4)nnn3c3ccsc23)cc1	-7%	x	x	x	u	-13%	x	0.4%
Cc1nn(-c2cc(C(F)(F)F)ccc2Cl)c2nc(C(F)(F)F)[nH]c(=O)c12	-26%	0%	9%	26%	1%	1%	-17%	-5.0%
CC(NC(=O)c1ccco1)C(=O)OCC(=O)c1ccc(Cl)s1 (stereo not given)	1%	-6%	-18%[46.1 µM]	-9%	-9%[46.1 µM]	x	x	x
Cc1ccccc1CSCc1nc(N)nc(Nc2ccccc2C)n1	0%	0%	u	5%	10%	x	x	x
C=C(C)CN(CC)C(=O)CSc1ccc(S(=O)(=O)N2CCN(Cc3ccccc3)CC2)cn1	0%	-3%	-23%	-10%	u	x	x	x
COc1ccc(C(=O)n2nc(-c3ccc(OC)cc3)nc2N)cc1	-5%	-11%	7%	-7%	1%	-14%	0%	0.9%
NC(=O)c1ccc(OCC(O)CN2CC=C(c3ccc(F)cc3)CC2)cc1 (stereo not given)	x	x	u	x	0%	-6%	11%	-3.4%
COc1cccc(/C=C/C(=O)c2c(O)cc(C)oc2=O)c1O	20µM*	7%	u	-28%	-11%	-1%	-92%	-1.6%
CC(C)(C)c1ccc(C(=O)NCc2cccnc2)cc1	20%	-7%	26%	21%	u	-2%	-13%	2.7%
CCOc1cc(/C=C2/C(=N)N3C(=NC2=O)SN=C3S(C)(=O)=O)ccc1OS(=O)(=O)c1ccccc1	-22%	1%	x	-7%	x	x	17%	x
O=C(CCCCCn1c(=S)[nH]c2ccc(N3CCOCC3)cc2c1=O)NCc1ccccc1	-13%	29%	6%	-4%	-7%	u	-1%	-2.8%
COc1ccc(OCC(=O)Nc2ccc(N3CCN(C(=O)c4ccccc4)CC3)c(Cl)c2)cc1	11µM*	9%	u	-28%	u	x	-25%	x
Cc1sc2nc(SCc3nc4ccccc4[nH]3)n(Cc3ccco3)c(=O)c2c1C	-1%	-4%	u	-24%	0%	32µM*	9%	-2.2%
CCCc1nnc(NC(=O)CCC(=O)N2CCN(Cc3ccccc3)CC2)s1	-12%	4%	9%[46.1 µM]	10%	27%[46.1 µM]	x	16%	x
COc1cc2nc(Nc3ccc(F)cc3)nc(N)c2cc1OC	-19%&-20%	-1%	u	9%	17%[46.1 µM]	-21%	-3%	-22%
O=C(CSc1ccccn1)N/N=C/c1cc([N+](=O)[O-])ccc1O	0%	0%	x	-21%	x	x	-144%	x
O=C(/C=C/NNC(=O)c1ccccc1)c1ccc([N+](=O)[O-])cc1	-10%	0%	u	-3%	x	x	4%	x
CCOc1ccc(C(C(=O)NC2CCCC2)N(C(=O)c2snc(C(N)=O)c2N)C2CCCC2)cc1 (stereo not given)	1%	-6%	u	4%	u	x	15%	x
CC1=NNC(=O)C1CCC(=O)N/N=C/c1ccc(Cl)cc1Cl (stereo not given)	12%	-3%	x	-9%	x	x	-9%	x
O=C(Cn1nc(Cc2ccncc2)c2ccccc2c1=O)Nc1cccnc1Cl	-11%	2%	x	-2%	x	x	-8%	x
CC(=O)Nc1cccc(-n2cc3c(c2-c2ccccc2Cl)c(=O)n(C)c(=O)n3C)c1	-21%	x	x	x	u	-5%	x	-2.4%
O=C(COC(=O)c1cc([N+](=O)[O-])ccc1Cl)NCCc1ccccc1	-15%	4%	-7%	-12%	0%	x	x	x
CCN(c1ccccc1)S(=O)(=O)c1c(C)noc1C	-10%	0%	6%	4%	u	x	x	x
COc1cc(NC(=S)N2CCN(C)CC2)c(OC)cc1Cl	2%	4%	x	14%	x	x	3%	x
COc1ccc(NS(=O)(=O)c2coc(C(N)=O)c2)cc1Cl	23%	-10%	x	6%	x	-7%	-10%	-2.5%
Cc1ccc(S(=O)(=O)NC(=NC2CCCCC2)c2ccc(F)cc2)cc1	59%[activator]	-2%	3%[46.1 µM]	11%	12%	x	-5%	x
Cc1nc2ncnn2c(C)c1CCC(=O)N1CC(C)CC(C)C1 (stereo not given)	12%	6%	3%	-4%	-4%	0%	0%	4.6%
CC(C)(CO)CNC(=O)CCc1nnc(Cc2ccc(-c3ccccc3)cc2)o1	-19%	1%	-10%[46.1 µM]	15%	-28%	x	-1%	x
C=CCNC(=S)N1CCN(c2ncc(C(F)(F)F)cc2Cl)CC1	-17%	-4%	u	-8%	1%[46.1 µM]	x	-3%	x
Cc1ccc(NC(=O)c2ccc3c(c2)NC(=O)CS3)nc1	3%	-8%	4%[46.1 µM]	2%	u	x	x	x
Cc1cc(C(=O)NCCN2CCCCC2C)n(-c2ccccc2)n1 (stereo not given)	-15%	2%	x	-1%	x	-3%	-1%	-1.5%
COc1cccc(-c2cc(C(F)(F)F)nc(-n3cccn3)n2)c1	-24%	1%	-1%	-11%	-20%	30%	-51%	-2.9%
Cc1cccc(/C=C/c2nc3ccccc3c(=O)n2Cc2ccccc2)c1	u	-15%	u	1%	u	-5%	19%	-5.6%
COc1ccc(N(C)C(=S)Oc2ccc(C(=O)Nc3ccccc3)cc2)cc1	x	6%	x	x	x	27%	1%	-1.1%
NC1=C([N+](=O)[O-])C(c2ccc(F)cc2)C2=C(CCCC2=O)O1 (stereo not given)	4%	5%	-22%	4%	-6%	9%	-2%	0.8%
COc1ccc(-c2cc(C(=O)Nc3cccnc3)no2)cc1OC	0%&37%	-3%	u	-7%	-18%	-5%	-16%	-2.3%
Clc1ccccc1Cn1nnc2c(N3CCCC3)ncnc21	7%	2%	u	-11%	u	-15%	-53%	-5.4%
COc1ccc([N+](=O)[O-])cc1-c1nc2ccccc2nc1-c1ccccc1	-21%	-2%	x	2%	x	x	0%	x
COc1ccc(NC(=O)CN2CCCCCC2)cc1OC	3%	6%	6%[46.1 µM]	2%	0%	x	7%	x
Clc1ccc(-n2nnnc2CN2CCCCC2)cc1Cl	-28%	0%	u	-1%	0%	-6%	-17%	0.9%
COC(=O)CCc1nc2ccccc2[nH]c1=O	-12%	2%	-12%	20%	-2%	7%	4%	-0.5%
O=C(CSc1nc(O)cc(=O)[nH]1)Nc1ccc2c(c1)CCC2	18%	4%	-2%	4%	-21%	16µM*	25%	-11%
Cc1ccc(S(=O)(=O)CC(=O)Nc2nccs2)cc1	-13%	-1%	10%[46.1 µM]	1%	-13%	x	x	x
Cc1ccc(-n2c(Cl)c(Cl)[nH]c(=O)c2=O)cc1	-11%	-7%	-3%	1%	5%	-3%	2%	-1.9%
CC#CCN1c2ccccc2[C@]23C[C@@H](C(=O)OC)N(C(=O)c4cc(C)oc4C)C2=NC(C(=O)OC)=C(C(=O)OC)[C@H]13	-7%	2%	x	-4%	x	x	5%	x

Compounds from the list above containing an aryl thioether with sulfur outside any ring (4):
SMILES	StopGo reporter	SARS PLP yeast	MARV entry inh	RE007 growth inh	Lassa entry inh	Cruzain inh noDet	NS1 inh	Cruzain Triton
C=C(C)CN(CC)C(=O)CSc1ccc(S(=O)(=O)N2CCN(Cc3ccccc3)CC2)cn1	0%	-3%	-23%	-10%	u	x	x	x
Cc1sc2nc(SCc3nc4ccccc4[nH]3)n(Cc3ccco3)c(=O)c2c1C	-1%	-4%	u	-24%	0%	32µM*	9%	-2.2%
O=C(CSc1ccccn1)N/N=C/c1cc([N+](=O)[O-])ccc1O	0%	0%	x	-21%	x	x	-144%	x
O=C(CSc1nc(O)cc(=O)[nH]1)Nc1ccc2c(c1)CCC2	18%	4%	-2%	4%	-21%	16µM*	25%	-11%

The results go on:
SMILES	StopGo reporter	SARS PLP yeast	MARV entry inh	RE007 growth inh	Lassa entry inh	Cruzain inh noDet	NS1 inh	Cruzain Triton
CN1CCN(c2ccc(NC(=O)CSc3ccccc3)cc2F)CC1	u	3%	u	-4%	u	-1%	-1%	-1.2%
CCn1cc(Cl)c(C(=O)NNC(=O)CCn2ccc([N+](=O)[O-])n2)n1	-16%	1%	x	0%	x	x	9%	x
O=C1c2ccccc2-c2c1c1ccccc1c(=O)n2CCO	0%	x	u	6%	u	x	x	x
COc1cccc(CNC(=O)CSC(=S)N2CCCC2)c1	-5%	0%	-3%[46.1 µM]	5%	-9%	x	x	x
Cc1sc2ncnc(N/N=C/c3cccc(O)c3)c2c1C	-5%	22%	3.2µM*	8%	28%	u	-19%	-18%
C(=N\Nc1nc2ccccc2s1)/c1ccccn1	3.5µM*	-7%	u	14µM*	0.89µM*	x	-83%	x
CCc1nn2c(=O)c(S(=O)(=O)Nc3ccc(C(C)C)cc3)c(C)nc2s1	-26%&-23%	4%	6%[46.1 µM]	-1%	10%[46.1 µM]	-2%	13%	-4.7%
CC(C)CN(C(=O)COC(=O)COc1ccc2c(c1)CCC2)c1c(N)n(Cc2ccccc2)c(=O)[nH]c1=O	-5%	-7%	-15%	8%	-1%	x	x	x
COc1ccccc1/C=C/c1nc2ccccc2n1C(C)C	12%	x	12%[46.1 µM]	x	-1%[46.1 µM]	5%	x	-13%
COc1ccc(Cl)cc1N(C)C(=O)Cn1cnc2sc(C)c(S(=O)(=O)N3CCN(c4ncccn4)CC3)c2c1=O	-8%	x	-11%[46.1 µM]	x	-9%[46.1 µM]	u	x	-4.7%
